Screens deposited in PubChem by several laboratories.
PABP polyA inh: PABP poly(A) RNA binding inhibitors, primary screen, biochemical, fluorescence polarization, uHTS. Polyadenylate-binding protein 1 (Homo sapiens), P11940. inhibition, % at 35 µM. 1% of 290,000 active;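 active = 50% or more with normal probe brightness, or confirmed in later tests; about a fifth of its hits are not listed in these tables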;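 note: calls also rest on retests at 20 µM and on dose response follow-up; controls were probe without protein and protein plus probe with vehicle; some compounds called inactive have numbers as strong as hits; many hits fall short of the cut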
MT1-MMP act inh: blockers of MT1-MMP proenzyme processing, primary screen, HT1080 RFP-PRO-GFP cells, GFP/RFP fluorescence | Matrix metalloproteinase-14 (Homo sapiens), P50281 | GFP/RFP ratio fluorescence, overnight; percent of plate control window, DMSO zero | GFP/RFP ratio change, % at 20 µM | 0.061% of 360,000 active;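 active = GFP/RFP ratio change of at least 30% with cell ATP level not reduced by more than half and red fluorescence within 50% of control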; note: strong numbers were not always called active
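Assay system: RFP-PRO-GFP reporter HT1080 cells; read-out basis: GFP/RFP fluorescence ratio; benchmarks: DMSO wells and RFP-L50D-GFP cells; doses: 20 µM single dose, 1% DMSO; schedule: overnight cell settling, then overnight compound exposure, 37 °C, 5% CO2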
Env fusion inh: inhibitors of HIV-1 Env-driven cell-cell fusion, primary screen, HeLa-JRFL effector, CEM21 target cells, luciferase. inhibition, % at 12.3 µM. 1.1% of 360,000 active. AID 651610, 2012;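 active = mean replicate inhibition score of at least 50 and every replicate individually at or above 50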;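 note: 0% = plate neutral controls and 100% = maraviroc near 300 nM; one replicate is shown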
CSC inhib: cancer stem cell viability inhibitors, primary screen, luminescence; inhibition, % at 7.5 µM; cancer stem cell-like cells viability; 1.1% of 300,000 active;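 active = mean at 75% or more and at least half the replicates too; tested in HMLE shEcad cells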;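 note: 0% = median of negative and 100% = median of positive control wells; the first replicate is given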
Rce1 inh: yeast Rce1p protease inhibitors, primary screen, biochemical, fluorescence, cell-free homogeneous | CAAX prenyl protease 2 (Saccharomyces cerevisiae (strain ATCC 204508 / S288c)), Q03530 | yeast membranes, quenched prenylated peptide cleavage fluorescence | calls only | 0.27% of 290,000 active | AID 2563, 2010;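 active = fall in fluorescence gain of 50% or more versus controls, with final raw signal at or below 3038400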;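 note: plate controls were neutral control wells for no effect and wells lacking membranes for full effect; tested at 10 µM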
Target sequence (Q03530 whole entry, looked up): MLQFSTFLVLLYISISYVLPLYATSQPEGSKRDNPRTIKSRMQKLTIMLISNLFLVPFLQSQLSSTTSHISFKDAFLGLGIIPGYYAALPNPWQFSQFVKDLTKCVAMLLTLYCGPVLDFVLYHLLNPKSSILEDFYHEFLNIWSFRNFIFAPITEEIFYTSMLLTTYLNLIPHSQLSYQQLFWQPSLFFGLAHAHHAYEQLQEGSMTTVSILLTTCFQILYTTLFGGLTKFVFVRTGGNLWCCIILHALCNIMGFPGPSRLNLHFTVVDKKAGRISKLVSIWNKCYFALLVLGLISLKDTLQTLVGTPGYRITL
eIF4H inh: human eIF4H binding inhibitors, primary screen, translation initiation inhibitor project, biochemical, uHTS, fluorescence polarization | Eukaryotic translation initiation factor 4H (Homo sapiens), Q15056 | eIF4H fluorescence polarization binding assay | inhibition, % at 35 µM | 0.94% of 290,000 active | AID 2012, 2009;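 active = 50% or more with normal probe brightness, or confirmed in later tests; about a fifth of its hits are not listed in these tables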;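 note: calls also rest on retests at 20 µM and on dose response follow-up; 0% = protein and probe with vehicle and 100% = probe without protein; strong numbers were not always called active; many hits fall short of the cut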
Yeast UUG start: modulators of yeast start codon fidelity, primary screen, whole organism, S. cerevisiae, single point, plate reader; 0.13% of 350,000 active; activity score, % at 18.7 µM; S. cerevisiae UUG-firefly luciferase reporter, luminescence/redox ratio; AID 602363, 2012;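 active = replicate mean at a twofold rise or more, about +100% in these data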;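 note: firefly luciferase made from a UUG start codon reports start codon fidelity; reporter light over untreated wells divided by growth signal over untreated wells; some hits fall short of that in this replicate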
MT1-MMP act inh RFP: further read-out of MT1-MMP act inh, marked with its call; RFP signal change, %; measured here: RFP expression control read;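 0 = vehicle wells; hits needed this value within 50% of zero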
* = called active by the depositor; i = inactive; . = no result given. Random draw from the library. About 2.9% of those tested had a hit in this group.

#	SMILES	PABP polyA inh	MT1-MMP act inh	MT1-MMP act inh RFP	Env fusion inh
1	O=C1CCCCN1CC(=O)N1CCCC(Nc2ccc(F)cc2)C1 (centres undefined)	6	-3	1	7
2	O=C(OCCc1cc2ccccc2c(=O)o1)c1ccccc1C(F)(F)F	.	2	-8	-5
3	O=C(NCCc1ccccc1)c1ccc2[nH]c(=O)c(=O)[nH]c2c1	1	-1	1	3
4	CC(=O)Nc1ccc(S(=O)(=O)N(C)c2ccc(O)cc2)cc1	6	-4	-2	-30
5	Cn1nc(-c2ccc(N3CCOCC3)c(NS(=O)(=O)c3ccccc3)c2)c2ccccc2c1=O	-8	6	13	.
6	CC1CC(C)CN(C(=O)c2cc(-c3ccncc3)nc3ccccc23)C1 (centres undefined)	.	-2	0	6
7	COC(=O)CSc1nc2cc(Cl)ccc2c(=O)n1C1CCCC1	0	10	-3	-13
8	CCOC(=O)C(CC)/C(C)=N/NC(=O)c1ccc([N+](=O)[O-])cc1 (centres undefined)	4	2	-1	.
9	C/C(=N\NC(=O)c1nn(C)cc1Br)c1cccc(NC(=O)C(C)(C)C)c1	-4	-2	-2	.
10	CC(=O)OCC[C@H](NS(=O)(=O)OCC(Cl)(Cl)Cl)c1ccccc1	12	2	1	-50

#	CSC inhib	Rce1 inh	eIF4H inh	Yeast UUG start
1	-11	i	-9	-15
2	11	.	.	-14
3	-16	i	-11	-7
4	-5	i	-5	-18
5	-6	i	-7	-9
6	7	i	.	-29
7	13	i	-7	-11
8	-16	i	-8	-21
9	-15	i	2	-16
10	-22	i	3	-13

Profiles, quoted from the list:
Record of Cn1nc(-c2ccc(N3CCOCC3)c(NS(=O)(=O)c3ccccc3)c2)c2ccccc2c1=O → PABP polyA inh = -8; MT1-MMP act inh = 6; MT1-MMP act inh RFP = 13; Env fusion inh = .; CSC inhib = -6; Rce1 inh = i; eIF4H inh = -7; Yeast UUG start = -9
Record of CCOC(=O)C(CC)/C(C)=N/NC(=O)c1ccc([N+](=O)[O-])cc1 (centres undefined) → PABP polyA inh = 4; MT1-MMP act inh = 2; MT1-MMP act inh RFP = -1; Env fusion inh = .; CSC inhib = -16; Rce1 inh = i; eIF4H inh = -8; Yeast UUG start = -21

More compounds
#	SMILES	PABP polyA inh	MT1-MMP act inh	MT1-MMP act inh RFP	Env fusion inh
11	CCCCCCN1C[C@@H](n2cc(C3CC3)nn2)[C@H](O)C[C@@H]1c1ccc(OC)cc1	.	2	-3	-8
12	COc1ccc(CN2C(=O)c3cccnc3C2=O)cc1S(=O)(=O)NC1CCCCC1C (centres undefined)	-2	0	3	1
13	CCCNC(=O)c1c(Cl)cnn1-c1ccc(C)cc1	8	-1	-2	-29
14	CCOC(=O)c1sc(/N=C/C2=C(O)CC(C)(C)CC2=O)c(C(=O)OCC)c1C	-12	-7	-2	-22
15	COCCNc1nc(N)c([N+](=O)[O-])c(NC2CCCCC2)n1	-2	-2	0	-48
16	O=C(NCCCN1CCOCC1)c1ccc(Cl)c(S(=O)(=O)N2CCCCCC2)c1	-2	.	.	16
17	Cc1ccc2oc(=O)c3cnn(CC(=O)NCCC(C)C)c3c2c1	4	2	5	-21
18	CC(=O)Nc1ccc(NC(=O)C(C)NC(C)c2cccc3ccccc23)cc1 (centres undefined)	6	4	2	-7
19	Cc1ccc(OCC(=O)N(Cc2ccc(N(C)C)cc2)C2CCS(=O)(=O)C2)cc1C (centres undefined)	2	3	1	40
20	Cn1c(=O)c2c(nc(Oc3ccc4c(c3)OCO4)n2Cc2ccc(Cl)cc2)n(C)c1=O	0	1	1	.

#	CSC inhib	Rce1 inh	eIF4H inh	Yeast UUG start
11	.	.	.	0
12	-3	i	-7	15
13	-3	.	-7	-15
14	-8	i	-14	.
15	-9	i	-4	-6
16	30	i	-4	-10
17	-1	i	-3	-1
18	-7	i	2	-7
19	-9	i	-10	1
20	-2	i	-1	-11

Going on with the list:
#	SMILES	PABP polyA inh	MT1-MMP act inh	MT1-MMP act inh RFP	Env fusion inh
21	C=CCN1C(=O)/C(=C\c2ccc(Cl)cc2)N=C1SCC(=O)NC1CCCCC1	-4	-12	-3	.
22	CCS(=O)(=O)Nc1ccc(-c2cc(-c3ccccc3)c3cc(C)ccc3n2)cc1	1	5	4	4
23	CC1(C)Cc2c(cnn2-c2ccc(F)cc2)C(NC(=O)c2ccco2)C1 (centres undefined)	-17	-2	-2	19
24	CC(C)n1c(-c2ccc(C(C)(C)C)cc2)n[nH]c1=S	1	-1	-16	43
25	Cc1ccc(C(=O)C2CCN(CC(=O)NCc3ccc(F)cc3)CC2)cc1	-4	3	-3	13
26	Cc1ccc(C(=O)Nc2scc(-c3ccccc3)c2C(=O)O)o1	-7	0	2	-26
27	CC(=O)Nc1nonc1NC(=O)c1ccc(C(C)(C)C)cc1	-1	5	1	-57
28	CCN(CC(=O)Nc1cc(Cl)ccc1C)C(=O)Cc1ccsc1	.	-3	-2	.
29	Cc1cccc(NC(=O)NC2(C(=O)NCc3ccco3)CCCCC2)c1	-6	.	.	-2
30	Cc1cc(=O)n(CCCc2ccccc2)[nH]1	.	4	3	7
31	COc1cc(/C=C(\C#N)C(=O)Nc2cccc(C(=O)O)c2)ccc1OCc1ccc(Cl)cc1	4	-5	-5	-43
32	O=C(NC1CC1)c1c(O)c2ccccc2[nH]c1=O	7	4	4	-4
33	O=C(CNC(=S)N(Cc1ccccc1)Cc1cccs1)NCc1ccc(F)cc1	-5	-3	-5	29

#	CSC inhib	Rce1 inh	eIF4H inh	Yeast UUG start
21	-10	i	0	-12
22	85*	i	-6	.
23	12	i	-18	0
24	4	i	2	-25
25	-3	i	6	-7
26	-7	i	-2	.
27	-1	i	8	-15
28	-8	.	.	11
29	.	i	-11	-10
30	8	i	.	0
31	-1	i	10	-8
32	8	i	-2	-3
33	.	i	-8	.

Rewritten bar-delimited: 12 of the compounds above
No. | SMILES | PABP polyA inh | MT1-MMP act inh | MT1-MMP act inh RFP | Env fusion inh | CSC inhib | Rce1 inh | eIF4H inh | Yeast UUG start
21 | C=CCN1C(=O)/C(=C\c2ccc(Cl)cc2)N=C1SCC(=O)NC1CCCCC1 | -4 | -12 | -3 | . | -10 | i | 0 | -12
22 | CCS(=O)(=O)Nc1ccc(-c2cc(-c3ccccc3)c3cc(C)ccc3n2)cc1 | 1 | 5 | 4 | 4 | 85* | i | -6 | .
23 | CC1(C)Cc2c(cnn2-c2ccc(F)cc2)C(NC(=O)c2ccco2)C1 (centres undefined) | -17 | -2 | -2 | 19 | 12 | i | -18 | 0
24 | CC(C)n1c(-c2ccc(C(C)(C)C)cc2)n[nH]c1=S | 1 | -1 | -16 | 43 | 4 | i | 2 | -25
25 | Cc1ccc(C(=O)C2CCN(CC(=O)NCc3ccc(F)cc3)CC2)cc1 | -4 | 3 | -3 | 13 | -3 | i | 6 | -7
26 | Cc1ccc(C(=O)Nc2scc(-c3ccccc3)c2C(=O)O)o1 | -7 | 0 | 2 | -26 | -7 | i | -2 | .
27 | CC(=O)Nc1nonc1NC(=O)c1ccc(C(C)(C)C)cc1 | -1 | 5 | 1 | -57 | -1 | i | 8 | -15
28 | CCN(CC(=O)Nc1cc(Cl)ccc1C)C(=O)Cc1ccsc1 | . | -3 | -2 | . | -8 | . | . | 11
29 | Cc1cccc(NC(=O)NC2(C(=O)NCc3ccco3)CCCCC2)c1 | -6 | . | . | -2 | . | i | -11 | -10
30 | Cc1cc(=O)n(CCCc2ccccc2)[nH]1 | . | 4 | 3 | 7 | 8 | i | . | 0
31 | COc1cc(/C=C(\C#N)C(=O)Nc2cccc(C(=O)O)c2)ccc1OCc1ccc(Cl)cc1 | 4 | -5 | -5 | -43 | -1 | i | 10 | -8
32 | O=C(NC1CC1)c1c(O)c2ccccc2[nH]c1=O | 7 | 4 | 4 | -4 | 8 | i | -2 | -3
